MLL AF4-AF9 inh – blocks AF4 peptide binding to human AF9; P42568; AlphaScreen, biotin-AF4 peptide binding to FLAG-AF9; inhibition, % at 10 µM; 350,000 tested, 0.47% active; AID 651704;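 active means every replicate reaching a set inhibition limit, whatever the replicate mean, cut at about 25% in these data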;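 further: 0% = plate neutral control median and 100% = total signal loss; the record names both 10 and 1 µM as test concentration; the first replicate is given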
Target sequence (P42568 whole entry, looked up): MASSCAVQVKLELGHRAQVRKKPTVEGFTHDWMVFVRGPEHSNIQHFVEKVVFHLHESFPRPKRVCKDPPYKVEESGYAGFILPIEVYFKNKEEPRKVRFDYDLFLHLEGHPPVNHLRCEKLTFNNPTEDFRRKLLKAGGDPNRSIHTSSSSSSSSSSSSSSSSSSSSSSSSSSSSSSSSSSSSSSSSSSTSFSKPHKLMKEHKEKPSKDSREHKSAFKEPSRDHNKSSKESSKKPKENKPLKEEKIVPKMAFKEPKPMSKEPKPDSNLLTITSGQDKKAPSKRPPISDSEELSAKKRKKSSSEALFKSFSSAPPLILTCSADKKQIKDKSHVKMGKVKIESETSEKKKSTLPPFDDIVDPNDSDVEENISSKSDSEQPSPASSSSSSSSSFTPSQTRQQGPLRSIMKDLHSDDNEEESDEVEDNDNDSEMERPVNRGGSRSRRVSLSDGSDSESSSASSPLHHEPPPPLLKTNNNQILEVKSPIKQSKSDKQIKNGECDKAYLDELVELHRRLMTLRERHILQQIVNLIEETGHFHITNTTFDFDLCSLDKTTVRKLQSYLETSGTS
FGF22 binding – binders of recombinant human FGF22 by thermal shift; Q9HCT0; SYPRO orange fluorescence; percent of sucrose octasulfate shift, DMSO zero; calls only at 9.99 µM; 340,000 tested, 1.5% active; AID 651658;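 active means melting point raised past a set limit in the mean and every replicate; three in four hits are not shown here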
Target sequence (Q9HCT0 whole entry, looked up): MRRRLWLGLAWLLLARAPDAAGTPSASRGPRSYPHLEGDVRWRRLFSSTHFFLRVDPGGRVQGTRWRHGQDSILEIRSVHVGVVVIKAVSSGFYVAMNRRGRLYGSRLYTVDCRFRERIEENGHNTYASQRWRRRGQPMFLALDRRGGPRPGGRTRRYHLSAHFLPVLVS
rRNA inh HTS – inhibits bacterial ribosomal RNA function over humanized ribosomes; 350,000 tested, 1.6% active; E. coli WT GFP vs humanized-ribosome RFP mutants, fluorescence, 24 h; hits give low values; DMSO median 0, no signal -100; GFP signal change (wild-type ribosome), % (no concentration beside the values);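 active means significant combined selectivity score with lowered wild-type GFP, culture density cut under 30%, mutant RFP and density less affected; inactive means any of these conditions unmet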; further: one replicate is shown; some compounds called inactive have numbers as strong as hits
rRNA inh HTS OD600 – also measured in rRNA inh HTS; calls as there; OD600 change, %; measured here: OD600 growth;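 optical density of the mix in the first replicate; 0 = DMSO median and -100 = no signal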
rRNA inh HTS RFP – also measured in rRNA inh HTS; calls as there; RFP signal change, %; measured here: RFP humanized mutant strains;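 first replicate; 0 = DMSO median and -100 = no signal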
* marks the source's active call; other numbers are inactive results; i = inactive; & = joins results of further samples. A portion of the library; the hit share may differ from the screen's.

SMILES	MLL AF4-AF9 inh	FGF22 binding	rRNA inh HTS	rRNA inh HTS OD600	rRNA inh HTS RFP
C[C@@H]1CN([C@@H](C)CO)C(=O)Cc2cc(NC(=O)C3CCCCC3)ccc2O[C@@H]1CN(C)C(=O)Nc1ccc(F)cc1	-2.5	i	2	-4	1.0
O=C(NCCN1CCC(n2c(=O)[nH]c3ccccc32)CC1)C(c1ccccc1)c1ccccc1	6.4	i	-28	-38	-3.1
O=C(CN1CCOCC1)NCC[C@H]1CC[C@H](NS(=O)(=O)c2ccc(Cl)cc2)[C@H](CO)O1	-2.3	i	0	10	-0.8
CCC(=O)Nc1ccc2c(c1)OC[C@H](C)N(CC1CCOCC1)C[C@H](C)[C@H](OC)CN(C)C2=O	0.0	i	2	-6	-1.3
CC(C)(C(=O)N1CCC1(C)C(=O)NS(=O)(=O)c1ccccc1Cl)c1ccccc1 (stereo not given)	-5.6	i	4	14	0.2
CO[C@H]1CN(C)C(=O)c2ccc(NC(=O)c3cnccn3)cc2OC[C@H](C)N(C(=O)C2CC2)C[C@@H]1C	-0.8	i	0	0	-2.4
COc1ccc(S(=O)(=O)Nc2ccc3c(c2)C(=O)N([C@H](C)CO)C[C@@H](C)[C@@H](CN(C)Cc2ccc(C(=O)O)cc2)O3)cc1	-10	i	-1	-3	-2.2
Cc1ccc(S(=O)(=O)Nc2ccc3c(c2)C(=O)N([C@H](C)CO)C[C@H](C)[C@H](CN(C)Cc2ccc4c(c2)OCO4)OCCCC[C@H](C)O3)cc1	8.5	i	3	-39	16
COc1cccc(S(=O)(=O)N2CCCCN3[C@@H](CO)[C@H](c4ccc(-c5cccnc5)cc4)[C@@H]3C2)c1	-3.5	i	-4	-6	5.3
C[C@H]1CN([C@@H](C)CO)C(=O)c2cc(NS(C)(=O)=O)ccc2O[C@H]1CN(C)S(=O)(=O)c1cn(C)cn1	-1.5	i	3	8	-1.2
Cc1cccc(S(=O)(=O)N2C[C@@H](O)COC[C@@H]3O[C@H](CC(=O)N4CCN(C)CC4)CC[C@H]32)c1	-14	i	2	9	-3.9
Cc1cccc(OC(C)C(=O)Nc2nc(-c3cccnc3)cs2)c1 (stereo not given)	-3.4	i	-5	-6	0.1
CC(C)NC(=O)Nc1cccc2c1O[C@H](CN(C)C(=O)Nc1ccc(C(F)(F)F)cc1)[C@H](C)CN([C@H](C)CO)C2=O	0.4	i	-10	-14	1.2
O=C(NCC[C@H]1CC[C@H](NC(=O)c2cccnc2)[C@@H](CO)O1)Nc1ccc(C(F)(F)F)cc1	13	i	-3&-61	-6&-80	0.5&-18
O=C(C[C@H]1CC[C@@H]2NC[C@H](O)COC[C@H]2O1)NCCN1CCCCC1	-2.3	i	7	13	0.8
O=C(CC(F)(F)F)N1C[C@H]2[C@@H](c3ccccc31)[C@@H](CO)N2CC1CCCCC1	-15	i	-19	-24	-2.3
O=C(C[C@@H]1C[C@H]2c3cc(NC(=O)Nc4ccc(C(F)(F)F)cc4)ccc3O[C@H]2[C@H](CO)O1)NCc1cccnc1	9.1	i	-28	-56	19
CN1[C@@H]2c3ccc(/C=C/c4ccccc4)c(=O)n3C[C@H]1[C@H](CO)[C@H]2C(=O)NC1Cc2ccccc2C1	-17	i	-10	-18	8.8
CNC[C@H]1Oc2c(NC(=O)Nc3c(C)noc3C)cccc2C(=O)N([C@@H](C)CO)C[C@@H]1C	-2.3	i	0	0	0.0
CO[C@H]1CN(C)C(=O)c2ccc(NC(C)=O)cc2OC[C@@H](C)N(C(=O)c2ccc(F)cc2)C[C@@H]1C	-0.3	i	-4	-5	1.5
COCC#Cc1ccc2c(c1)O[C@H](CN(C)Cc1cccnc1)[C@H](C)CN([C@H](C)CO)S2(=O)=O	-1.1	i	0	4	-1.5
CC(C)NC(=O)Nc1ccc2c(c1)C(=O)N([C@H](C)CO)C[C@@H](C)[C@H](CN(C)S(=O)(=O)c1ccc(F)cc1)O2	0.0	i	-2	-3	-1.7
CO[C@H]1CN(C)C(=O)c2ccc(NS(=O)(=O)c3ccccc3)cc2OC[C@H](C)N(Cc2nccs2)C[C@@H]1C	0.5	i	1	-7	1.7
CCOC(=O)c1c(C)[nH]c(C(=O)C(C)OC(=O)c2cnc(C)cn2)c1C (stereo not given)	0.0	i	-26*	-17*	2.7*
COc1ccc(NC(=O)N(C)C[C@@H]2Oc3ccc(NS(=O)(=O)c4ccc(F)cc4)cc3CC(=O)N([C@@H](C)CO)C[C@H]2C)cc1	-3.8	i	0	4	-1.4

Some of these compounds in order of their number in rRNA inh HTS OD600, lowest first:
SMILES	MLL AF4-AF9 inh	FGF22 binding	rRNA inh HTS	rRNA inh HTS OD600	rRNA inh HTS RFP
COc1cccc(S(=O)(=O)N2CCCCN3[C@@H](CO)[C@H](c4ccc(-c5cccnc5)cc4)[C@@H]3C2)c1	-3.5	i	-4	-6	5.3
C[C@@H]1CN([C@@H](C)CO)C(=O)Cc2cc(NC(=O)C3CCCCC3)ccc2O[C@@H]1CN(C)C(=O)Nc1ccc(F)cc1	-2.5	i	2	-4	1.0
COc1ccc(S(=O)(=O)Nc2ccc3c(c2)C(=O)N([C@H](C)CO)C[C@@H](C)[C@@H](CN(C)Cc2ccc(C(=O)O)cc2)O3)cc1	-10	i	-1	-3	-2.2

Further structures follow:
SMILES	MLL AF4-AF9 inh	FGF22 binding	rRNA inh HTS	rRNA inh HTS OD600	rRNA inh HTS RFP
Cc1cc(C)n2c(NC3CCCCC3)c(-c3cccnc3)nc2n1	1.7	i	10	27	9.6
CCCNC(=O)C1(C)CCCN(C(=O)C2(c3ccc(Cl)cc3)CCCC2)C1 (stereo not given)	-4.0	i	-5	-26	-4.8
COc1ccc(CN(C)C[C@H]2Oc3ccc(NC(=O)NC(C)C)cc3C(=O)N([C@@H](C)CO)C[C@H]2C)cc1	-0.5	i	4	5	-2.1
CCCCNC(=O)C1(C)CCN1C(=O)c1ccc2ccccc2n1 (stereo not given)	-0.5	i	12	18	3.2
CCC(=O)Nc1ccc2c(c1)C(=O)N(C)[C@H]1CC[C@@H](CC(=O)O)O[C@H]1CO2	-0.1	i	2	5	-2.5
CO[C@@H]1CN(C)C(=O)c2ccc(NC(=O)Nc3cccc(F)c3)cc2OC[C@@H](C)N(C(C)=O)C[C@@H]1C	4.2	i	-4	-3	2.4
COCCNC(=O)C[C@@H]1CC[C@@H](NC(=O)NC2CCCCC2)[C@@H](CO)O1	-5.4	i	-1	-2	-2.0
COc1ccccc1C#Cc1ccc2c(c1)O[C@H](CN(C)C)[C@H](C)CN([C@@H](C)CO)S2(=O)=O	9.0	i	3	13	2.5
C[C@H](CO)N1C[C@H](C)[C@H](CN(C)S(=O)(=O)c2ccc(F)cc2)OCCCC[C@H](C)Oc2ccc(NC(=O)CCC(F)(F)F)cc2C1=O	-12	i	-5	-6	-0.2
C[C@H](CO)N1C[C@H](C)[C@H](CN(C)S(=O)(=O)c2cccs2)Oc2ccc(NC(=O)CCC(F)(F)F)cc2C1=O	-1.8	i	-1	-10	0.5
CN(Cc1ccccc1)C(=O)c1ccc(NC(=O)Cc2ccc(NC(=O)C3CCCN(C(=O)C4CCC4)C3)cc2)cc1 (stereo not given)	1.6	i	-3	-6	-1.8
CCN1[C@@H]2c3ccc(-c4ccccc4OC)c(=O)n3C[C@H]1[C@H](CO)[C@H]2C(=O)N1CCOCC1	1.7	i	4	9	-3.5
CCCNC(=O)C1(C)CCCN(C(=O)c2ccc3sccc3c2)C1 (stereo not given)	1.1	i	6	1	-2.3
C[C@@H]1CN([C@@H](C)CO)C(=O)c2cccc(NC(=O)c3ccc(-c4nccs4)cc3)c2O[C@H]1CN(C)C(=O)NC1CCCCC1	0.0	i	1	4	-0.8
COc1ccc2c3c([nH]c2c1)[C@@H](CO)N(CC1CC1)CC31CN(C(=O)c2ccccc2)C1	0.1	i	-2	1	0.7
C[C@@H]1CCCCO[C@@H](CN(C)C(=O)Nc2cccc3ccccc23)[C@@H](C)CN([C@@H](C)CO)C(=O)c2cc(NC(=O)C3CCCCC3)ccc2O1	0.1	i	1	-1	-1.2
O=C(CCC1CCN(C(=O)C2CC=CCC2)CC1)Nc1ccccc1 (stereo not given)	-5.5	i	5	10	-0.8
Cc1noc(C)c1S(=O)(=O)Nc1cccc2c1O[C@H](CN(C)Cc1ccc3c(c1)OCO3)[C@H](C)CN([C@@H](C)CO)C2=O	-3.5	i	4	2	-0.9
CO[C@@H]1CN(C)C(=O)c2cc(NC(=O)Nc3cccc(F)c3)ccc2OC[C@@H](C)N(C)C[C@@H]1C	4.5	i	-1	0	0.7
CC(C)C#Cc1cnc2c(c1)C(=O)N([C@@H](C)CO)C[C@H](C)[C@@H](CN(C)C(=O)Cc1ccncc1)O2	0.2	i	2	8	-1.9
CC(C)NC(=O)Nc1ccc2c(c1)C(=O)N([C@H](C)CO)C[C@@H](C)[C@@H](CN(C)C(=O)c1ccccc1)OCCCC[C@H](C)O2	-7.3	i	-7	-4	-0.7
C[C@@H]1CCCCO[C@H](CN(C)S(=O)(=O)c2cccs2)[C@H](C)CN([C@H](C)CO)C(=O)c2cc(NC(=O)Nc3ccccc3)ccc2O1	1.7	i	1	8	-1.2
COc1ccc(C2=CCCCCC2)c(OC)c1OC	0.4	i	-2	-43	0.8
COc1cccc(C(C)(O)c2nc(-c3cccc(C(=O)O)c3)cs2)c1 (stereo not given)	0.2	i	-2	-8	-3.5
C[C@H]1CN([C@@H](C)CO)C(=O)c2cc(-c3cncnc3)cnc2O[C@H]1CN(C)C(=O)Cc1ccccc1	-4.5	i	8	18	-0.4

Following part
SMILES	MLL AF4-AF9 inh	FGF22 binding	rRNA inh HTS	rRNA inh HTS OD600	rRNA inh HTS RFP
Cc1noc(C)c1NC(=O)N(C)C[C@@H]1Oc2ccc(NC(=O)CCN3CCOCC3)cc2CC(=O)N([C@H](C)CO)C[C@H]1C	-11	i	0	5	-0.2
C[C@H]1CN([C@@H](C)CO)C(=O)c2cccc(NS(=O)(=O)c3ccc(F)cc3)c2O[C@H]1CN(C)Cc1ccncc1	-0.8	i	0	0	-1.1
C[C@H](CO)N1C[C@H](C)[C@H](CN(C)C(=O)C2CC2)Oc2ncc(C#CCc3ccccc3)cc2C1=O	-18	i	3	1	3.0
Cc1ccc(OC(=O)CCC(=O)Oc2ccc(C)cc2C)c(C)c1	-6.6	i	-6	-3	1.7
C[C@@H]1CCCCO[C@@H](CN(C)CC2CCCCC2)[C@@H](C)CN([C@H](C)CO)C(=O)c2cc(NC(=O)CCCCCC(=O)Nc3ccccc3N)ccc2O1	-3.3	i	-8	-8	-5.4
CC(O)(c1cccc(F)c1)c1nc(-c2csc3ccccc23)cs1 (stereo not given)	-0.5	i	-62	-79	-16
Oc1ccc(C=NN=C2c3ccccc3-c3ccccc32)c(O)c1	0.5	i	7	9	-1.9
CC(C)NC(=O)N(C)C[C@H]1Oc2ncc(C#CCC3CCCC3)cc2C(=O)N([C@@H](C)CO)C[C@@H]1C	-7.9	i	1	2	-1.5
O=C1[C@@H](Oc2ccccc2)[C@@H](c2ccccc2)N1c1cccnc1	-1.0	i	7	3	6.3
O=c1[nH]c(=S)[nH]c2c1C(c1ccc(F)cc1)OC(C1CCCCC1)C2 (stereo not given)	4.7	i	-11	-32	6.6
CCCCn1c(N)c(N(CCOC)C(=O)c2ccc(N3C(=O)c4ccccc4C3=O)cc2)c(=O)[nH]c1=O	-5.2	i	4	15	-4.0
C[C@H](CO)N1C[C@H](C)[C@H](CN(C)C(=O)NC2CCCCC2)Oc2ccc(NS(=O)(=O)c3cn(C)cn3)cc2C1=O	-2.8	i	2	-5	-1.3
C[C@@H]1CN([C@@H](C)CO)S(=O)(=O)c2ccc(C#Cc3ccccc3F)cc2O[C@H]1CN(C)C(=O)Cc1cccnc1	-0.1	i	-36	-52	1.1
CCCNC(=O)C[C@H]1CC[C@H]2[C@H](COc3ccc(NC(=O)c4ccc(Cl)cc4)cc3C(=O)N2C)O1	0.3	i	-6	-1	-0.1
CCNC(=O)[C@H]1[C@H](CO)[C@H]2Cn3c(ccc(-c4ccncc4)c3=O)[C@@H]1N2Cc1ccccc1	-0.5	i	2	-1	-2.5
Cc1ccccc1S(=O)(=O)N1CC[C@@H]2[C@H]1c1cc(-c3ccc(C#N)cc3)ccc1N(C)[C@H]2CO	-5.0	i	-1	-8	2.7
Cc1cn(CC(=O)NCc2nc3ccccc3[nH]2)c(=O)[nH]c1=O	-0.6	i	23	9	2.3
C[C@@H]1CCCCO[C@@H](CN(C)C(=O)Cc2ccccc2)[C@@H](C)CN([C@@H](C)CO)C(=O)c2cc(N(C)C)ccc2O1	3.4	i	-2	-8	-1.4

Three entries picked at random from the list so far, as already listed:
SMILES	MLL AF4-AF9 inh	FGF22 binding	rRNA inh HTS	rRNA inh HTS OD600	rRNA inh HTS RFP
Cc1cn(CC(=O)NCc2nc3ccccc3[nH]2)c(=O)[nH]c1=O	-0.6	i	23	9	2.3
Cc1ccc(OC(=O)CCC(=O)Oc2ccc(C)cc2C)c(C)c1	-6.6	i	-6	-3	1.7
CCCNC(=O)C[C@H]1CC[C@H]2[C@H](COc3ccc(NC(=O)c4ccc(Cl)cc4)cc3C(=O)N2C)O1	0.3	i	-6	-1	-0.1
